Source: PubChem (several laboratories)
ALR inh – inhibitors of human sulfhydryl oxidase ALR; AID 485317; inhibition, % (test concentration not listed); P55789; purified ALR, DTT oxidation, H2O2 HRP-luminol luminescence; 3.8% of 290,000 active;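 active means mean and each replicate at 75% or more; inconclusive means only one of the two met; inactive means neither met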;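 further: stock transfer was 7.5 nL into about 7.5 µL; 0% = neutral wells and 100% = wells with inactivated enzyme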
Target sequence (P55789 whole entry, looked up): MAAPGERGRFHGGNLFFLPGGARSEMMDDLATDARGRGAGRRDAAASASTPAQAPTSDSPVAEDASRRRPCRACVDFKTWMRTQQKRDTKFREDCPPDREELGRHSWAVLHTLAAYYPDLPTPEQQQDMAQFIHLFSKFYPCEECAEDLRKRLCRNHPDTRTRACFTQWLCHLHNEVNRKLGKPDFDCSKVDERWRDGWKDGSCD
RanGTP-Impb inh – disruptors of Ran-importin-beta complex formation – biochemical, FRET, CFP-Ran, YFP-importin-beta, homogeneous, primary screen; cell-free CFP-Ran/YFP-importin-beta FRET ratio; inhibition, % (no concentration beside the values); 1.1% of 300,000 active;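 active means most replicates above 15%; inconclusive means exactly half above 15%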;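 further: 0% = DMSO wells and 100% = Ran loaded with GDP instead of GTP; wells of about 40 µL received 100 nL stock; the first replicate is given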
LANA-H2B inh – blocks KSHV LANA binding to histone H2A/H2B | cell-free LANA-H2A/H2B peptide, fluorescence polarization | inhibition, % (no concentration beside the values) | 0.6% of 320,000 active; in the data active means inhibition mostly above about 10%, no sharp cut-off; inactive means mostly below about 6.7%;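 further: stock transfer was 7.5 nL into about 10 µL; 0% = median of vehicle wells and 100% = median of positive control wells; one replicate is shown; the record names a cut of 25% in any replicate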
HNF4A DNA FP – change in binding of human HNF4 alpha to DNA | 0.3% of 360,000 active | HNF4a-FITC DNA binding, fluorescence polarization, 1 h | activity change, % at 10 µM | AID 1224865 | P41235; in the data active means activity change above about 30%, passing the limit was not always enough;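 further: controls were the assay level and a saturating level of protein; the project sought stronger binding though the title names inhibitors; some compounds called inactive have numbers as strong as hits; positive values seem to mean higher polarization but the record does not say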
Target sequence (P41235 whole entry, looked up): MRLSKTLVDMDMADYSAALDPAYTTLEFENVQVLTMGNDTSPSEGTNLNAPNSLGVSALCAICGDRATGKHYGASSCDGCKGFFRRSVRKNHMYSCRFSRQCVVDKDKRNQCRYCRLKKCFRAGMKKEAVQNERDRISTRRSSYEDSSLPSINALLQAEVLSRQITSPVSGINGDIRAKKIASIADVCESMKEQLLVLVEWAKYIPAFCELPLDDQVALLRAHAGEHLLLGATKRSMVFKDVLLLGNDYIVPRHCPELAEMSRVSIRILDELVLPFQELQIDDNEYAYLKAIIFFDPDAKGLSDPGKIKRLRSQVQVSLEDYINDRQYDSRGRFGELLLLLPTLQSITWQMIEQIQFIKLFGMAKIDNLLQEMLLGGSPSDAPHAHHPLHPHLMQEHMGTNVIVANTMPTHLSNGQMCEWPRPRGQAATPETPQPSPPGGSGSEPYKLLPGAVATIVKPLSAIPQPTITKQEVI
Calb FLC – affects C. albicans growth with fluconazole; C. albicans CaCi-2 (fluconazole-resistant clinical isolate) + fluconazole, Alamar Blue growth, 48 h; growth inhibition, % (concentration not given with the values); 0.57% of 300,000 active; AID 1979;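 active means most replicates above 75%; inconclusive means exactly half above 75%; inactive means most below 75%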;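 further: all wells also contain fluconazole at 8 µg/ml as a sub-toxic cotreatment; 0% = median of DMSO wells and 100% = median of geldanamycin control wells; wells of about 8 µL received 7.5 nL stock; the first replicate is given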
Vif A3G – HIV-1 Vif–A3G interaction blockers – biochemical, TR-FRET, GST-Vif 1-94, biotin-A3G peptide, dose response retest, primary screen (AID 1117319) | TR-FRET GST-Vif / biotin-A3G peptide binding; higher % means a stronger effect; test concentration not given here; strong numbers were not always called active | one-dose inhibition, %; IC50 in µM for titrated hits | 0.57% of 260,000 active;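 active means above the screen mean plus three standard deviations and confirmed in dose response; inconclusive means results disagree or hit not tested in dose response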;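 further: Vif residues 1-94 fused to GST binding biotinylated APOBEC3G peptide 110-148; 0% = full assay without inhibitor and 100% = GST in place of GST-Vif; retest series ran down from 100 µM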
Beta2AR agonist – agonists of human beta-2 adrenergic receptor inducing internalization. Am2.2-beta2AR cells, FAP receptor internalization, flow cytometry; reference of the scale not given here. AID 504454. P07550. 0.43% of 340,000 active. response, % (concentration not given with the values);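 active means response above a set limit, near 3 SD of response in nonfluorescent compounds, cut at about 42% in these data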;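 further: stock transfer was 100 nL into about 11 µL; a reference agonist was the positive control; negative values mostly stem from fluorescent compounds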
Target sequence (P07550 whole entry, looked up): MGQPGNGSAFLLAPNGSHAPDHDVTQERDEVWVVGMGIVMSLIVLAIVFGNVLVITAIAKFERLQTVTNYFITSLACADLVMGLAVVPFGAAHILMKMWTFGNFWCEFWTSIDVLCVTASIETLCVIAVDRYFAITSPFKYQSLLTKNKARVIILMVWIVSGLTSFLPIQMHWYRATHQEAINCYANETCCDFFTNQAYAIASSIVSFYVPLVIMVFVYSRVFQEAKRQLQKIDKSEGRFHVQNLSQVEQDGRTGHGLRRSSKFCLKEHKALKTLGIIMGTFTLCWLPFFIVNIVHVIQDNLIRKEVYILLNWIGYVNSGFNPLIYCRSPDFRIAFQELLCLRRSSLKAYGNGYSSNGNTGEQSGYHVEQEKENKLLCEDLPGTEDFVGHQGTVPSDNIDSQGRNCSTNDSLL
Active calls of the source: *; ? = inconclusive; / = not tested or not shown.

SMILES	ALR inh	RanGTP-Impb inh	LANA-H2B inh	HNF4A DNA FP	Calb FLC	Vif A3G	Beta2AR agonist
O=C(Cn1c2c(c(-c3ccccc3Cl)cc1=O)CCC2)NCC1CCCO1 (stereo not given)	-3	3.4	6.6	-4.2	-2	?	11
COc1ccc(CC(NC(C)=O)C(=O)NC2CCN(c3ncccc3[N+](=O)[O-])CC2)cc1 (stereo not given)	1	4.4	-2.7	1.1	?	5%	3
COc1ccc(CNC(=O)C(OC(=O)c2ccco2)c2ccc(OC)cc2)cc1 (stereo not given)	-1	?	-3.5	-1.9	-6	-1%	-8
Fc1cccc(Cl)c1CNCc1cccnc1	0	-6.8	3.5	1.3	-4	?	-2
Cc1ccc(S(=O)(=O)NCC(=O)Nc2ccc3c(c2)OCCO3)cc1	/	8.2	0.2	1.0	6	/	-3
O=C(CSc1ncnc2c1cnn2-c1ccccc1)NC1CCCC1	-13	?	1.7	2.8	-23	4%	0
CC(=O)Nc1ccc(OCC(O)CN2CCN(c3ccc(Cl)cc3)CC2)cc1 (stereo not given)	10	?	0.5	5.1	4	23%	-12
Cc1ccc(C(=O)Nc2nnn(C)n2)cc1	/	2.8	-11	1.4	-8	?	2
CCOC(=O)Cc1csc(NC(=O)CSc2nc(C)cc(=O)[nH]2)n1	99*	1.9	-2.0	1.2	-12	2%	11
Cc1nn(-c2ccccc2)c(NC(=O)C(C)C)c(-c2ccccc2)c1=O	-13	1.9	1.9	4.4	-6	-1%	-1
CC(C)(C)C1(O)CC(C(F)(F)F)=NN1C(=O)CCc1ccccc1 (stereo not given)	/	6.4	-2.2	-2.0	-17	-3%	-3
CCSC1=N/C(=C\c2cccnc2)C(=O)N1c1ccccc1	-2	3.6	-3.1	-0.1	-3	10%	-7
CCS(=O)(=O)c1nc(S(=O)(=O)c2ccc(Cl)cc2)c(NCc2ccccn2)s1	1	2.8	-6.0	-2.0	-11	/	-9
O=c1[nH]c(SCc2ccc(Cl)cc2)nc2[nH]ncc12	-3	-0.1	0.4	-3.0	12	-2%	2
COc1ccccc1N1CCN(C(=O)CCc2nnc3ccc(N4CCOCC4)nn23)CC1	8	-1.9	-0.4	-0.8	12	0%	-9
COCCN(C(=O)c1cccc(N2C(=O)CCC2=O)c1)c1nc(-c2ccc([N+](=O)[O-])cc2)cs1	/	0.1	/	2.6	1	-3%	3
CCOc1ccc(CNC(=O)C2CCCN(c3nnc(C)c4c(C)n(-c5ccccc5)nc34)C2)cc1 (stereo not given)	-2	-1.4	0.5	4.6	-28	/	1
COc1ccccc1C1=NNC(=Nc2cccc(S(=O)(=O)N(C)C)c2)SC1	-2	1.8	-1.4	3.6	7	14%	4
OCCN1CCN(C2CCC(c3ccc(F)cc3)c3ccc(F)cc32)CC1 (stereo not given)	/	-0.2	4.2	7.2	65	/	3
CN(CC(=O)Nc1ccccc1Cl)C(=O)COC(=O)c1ccc(C(F)(F)F)cc1	-5	/	-7.3	-0.8	/	-16%	-5

Single records, as listed above. Order of values: ALR inh | RanGTP-Impb inh | LANA-H2B inh | HNF4A DNA FP | Calb FLC | Vif A3G | Beta2AR agonist
`Cc1ccc(S(=O)(=O)NCC(=O)Nc2ccc3c(c2)OCCO3)cc1` is entered as / | 8.2 | 0.2 | 1.0 | 6 | / | -3
`CCSC1=N/C(=C\c2cccnc2)C(=O)N1c1ccccc1` is entered as -2 | 3.6 | -3.1 | -0.1 | -3 | 10% | -7

Additional records follow:
SMILES	ALR inh	RanGTP-Impb inh	LANA-H2B inh	HNF4A DNA FP	Calb FLC	Vif A3G	Beta2AR agonist
O=c1cc(N2CCN(c3ccc(F)cc3)CC2)[nH]c(=O)n1C1CCCCC1	/	3.1	1.5	3.4	-1	2%	-5
COc1ccc(NC(=O)COC(=O)C2CC(=O)N(c3ccc(C)cc3)C2)cc1 (stereo not given)	3	3.3	2.8	-0.4	-5	/	-3
COc1ccc(CC(=O)N2CCN(S(=O)(=O)c3ccc(Cl)s3)CC2)cc1	-2	/	0.2	-0.7	/	2%	4
CCOCCCNC(=O)C(c1ccc(OC)cc1)N(Cc1cccs1)C(=O)c1ccccc1O (stereo not given)	2	0.9	-4.6	-4.3	-3	19%	1
COc1ccc(C(=O)NCC2(c3ccc(OC)c(OC)c3)CCCC2)c(OC)c1	-3	6.3	2.0	1.4	14	/	1
O=C(CN1CCN(Cc2ccc(Cl)cc2)CC1)N/N=C/c1c[nH]c2ccccc12	0	3.7	6.2	0.8	52	/	5
Cc1ccc(S(=O)(=O)c2nc(NCCN(C)C)sc2Cl)cc1	2	1.3	2.3	2.6	-20	4%	3
Cc1ccc(C(=O)NCCCC(=O)O)o1	/	-0.5	-0.2	-3.5	-3	-7%	-2
CCOC(=O)C1C(=O)C=C(/C=C/c2ccccc2)CC1c1ccc(Cl)cc1 (stereo not given)	0	-0.9	0.0	-0.5	-5	0%	1
Cc1occc1-c1nnc(SCC(=O)NCCc2ccccc2)o1	4	3.4	3.4	1.5	17	10%	-1
COc1ccccc1NC(=O)C1CC(C(C)C)OC1=O (stereo not given)	2	0.7	3.5	3.2	-6	/	0
CC(C)(C)OC(=O)N[C@@H](Cc1ccccc1)[C@H](O)c1ccco1	40	2.1	3.9	5.1	-8	/	2
CC1(C)N=C(N)N=C(N)N1c1ccccc1	-1	5.7	5.2	-1.7	13	-7%	2
COc1cccc(C(=O)N/N=C(\C)c2cccc(NC(=O)c3ccc(F)cc3)c2)c1OC	2	-1.6	0.7	1.2	-2	/	8
COc1ccc(NC(=O)N(Cc2cc3cc(OC)c(OC)cc3[nH]c2=O)CC2CCCO2)cc1 (stereo not given)	/	5.0	0.3	-2.6	-1	2%	8
COc1ccc(-c2noc(CCCC(=O)Nc3ccc(C(N)=O)cc3)n2)cc1OC	/	-0.1	4.0	0.6	-1	/	2
O=C(O)c1ccccc1Nc1ccccc1C(=O)O	/	2.5	/	-2.5	-7	5%	8
CCOC(=O)N1CCN(C(=O)CSC2=NS(=O)(=O)c3ccccc3N2)CC1	-23	1.8	-2.7	-0.9	-5	3%	5
CCc1ccc(C(C(=O)NC2CCCC2)N(C(=O)c2csnn2)C2CC2)cc1 (stereo not given)	-4	1.3	1.8	1.8	3	-2%	-1
COc1cc(C)c(Cl)cc1S(=O)(=O)NCc1ccccn1	1	-3.0	-4.0	-3.4	-5	11%	-6
COc1cc(C(=O)N2CCN(C/C=C/c3ccccc3)CC2)cc(OC)c1OC	1	0.3	-1.2	0.4	1	5%	2
CCCCS(=O)CC(CS(=O)CCCC)OC(=O)c1ccccc1 (stereo not given)	-3	-3.3	-4.2	0.7	2	24%	6
O=C(COC(=O)c1ccccc1O)Nc1cccc(S(=O)(=O)N2CCCC2)c1	1	/	-0.5	3.5	/	-8%	-4
O=C(CN1N=C(c2ccccc2)CCC1=O)NCCCN1CCc2ccccc2C1	-20	1.9	-2.4	-4.3	-4	/	-12
CCOc1cccc(=O)c2c(C)n(Cc3ccco3)c(C)c12	9	-11	-0.5	-9.0	-6	0.45µM*	14
O=[N+]([O-])c1[nH]cnc1/C=C/c1ccccc1	-2	7.3	-3.7	1.5	14	0%	-1
COc1ccc(-n2ncc3c(NCCCN4CCOCC4)ncnc32)cc1	-1	1.3	0.4	-2.9	-4	-1%	7
CCCc1c(C(=O)Nc2ccc(OC)cc2)cnn1-c1ccccc1	9	-1.1	2.8	0.5	5	-4%	6
Cc1nnc(SCC(=O)N/N=C/c2cc(Cl)c(O)c(Cl)c2)s1	82*	-2.9	-1.0	-2.1	0	/	4
CCOC(=O)C1CCCN(C(=O)c2cc3ncc(Br)cn3n2)C1 (stereo not given)	-2	1.4	-0.6	-1.3	-8	0%	2
COc1ccc(NC(=S)NCc2ccc(Cl)cc2)c(OC)c1	-8	0.7	1.2	-2.7	11	/	-1
COc1cc(C(=O)NCCC(=O)NCCc2ccc(Cl)cc2)cc(OC)c1OC	-23	2.8	0.4	5.2	-11	-9%	-1
O=C(CC1CCCCC1)Nc1ccccc1-c1ccccc1	-15	-1.5	0.2	2.0	-4	5%	-4
Cc1nc(N)nc(N/N=C/c2ccccc2)n1	12	2.0	-0.4	-3.6	4	-1%	-6
COc1ccc(NC2CC(=O)NC2=O)cc1 (stereo not given)	46	2.1	2.5	0.7	5	1%	-1
O=C(CSc1ccccc1C(=O)NCc1ccccc1)NC1CCCCCCC1	-2	-0.8	-5.8	2.7	-2	/	-39
O=C(Nc1ccc2oc(-c3ccccc3)nc2c1)c1ccccc1F	0	3.5	-5.5	-0.7	6	/	-1
CC1(C)CC(=O)C=C(NCCN2CCN(C(=O)Nc3ccc(Cl)cc3)CC2)C1	3	3.6	2.0	0.1	?	2%	6
CN(C)C(CNC(=O)CCS(=O)(=O)c1ccccc1)c1ccccc1 (stereo not given)	-4	2.7	3.8	2.0	-1	-7%	1
COc1cc([C@H]2[C@@H]3CCCC[C@]3(O)CCN2CC(=O)Nc2ccc(C)cc2)ccc1O	21	-0.7	7.3	1.1	3	23%	-1
CC(C)C(=O)Nc1ccc(C(=O)NNC(=O)c2cccs2)cc1	/	1.2	/	0.1	9	-3%	0
C=CCNC(=S)N/N=C(\C)c1cc(OC)c(OC)c(OC)c1	3	-0.6	-1.5	0.0	-2	/	14
O=CN1N=C(c2ccccc2)CC1c1ccccc1[N+](=O)[O-] (stereo not given)	/	1.3	-2.1	-2.4	-3	/	-14
Cc1ccc(-n2nnnc2SCC(=O)NC2CCCc3ccccc32)c(C)c1 (stereo not given)	/	-2.0	/	-1.5	3	4%	1
Cc1ccc(S(=O)(=O)C2(C(=O)Nc3nccs3)CC2)cc1	/	/	0.6	0.2	/	6%	-3
Cc1cccc(-n2ncc3c(NCc4ccccc4)ncnc32)c1	-1	3.0	2.2	-0.8	-17	-9%	-8
O=C(CN1C(=O)NC2(CCCCC2)C1=O)Nc1cccc(S(=O)(=O)N2CCOCC2)c1	-11	3.7	-5.9	-1.0	-4	4%	2
COc1ccc(-c2nc(CS(=O)CC(=O)NC3CCCCCC3)c(C)o2)cc1 (stereo not given)	98*	-1.1	0.3	4.3	2	0%	-2
CCOc1ccc(C)cc1S(=O)(=O)n1ccc(C)n1	2	-0.5	1.2	0.7	1	0%	-1
COC(=O)c1cc(S(=O)(=O)NCC2CCN(Cc3cc(C)ccc3C)CC2)c[nH]1	0	3.2	-0.3	0.3	5	/	0
CCCN(CCC)C(=O)Cc1ccc(F)cc1	-1	7.2	2.6	0.5	-4	1%	0
CCCCNC(=O)n1c(SC)nc2ccccc21	-2	5.7	-4.9	-4.5	-6	4%	-11
Cc1ccc(S(=O)(=O)N(CC(=O)N2CCC(C(N)=O)CC2)Cc2ccc(F)cc2)cc1	-5	6.6	0.6	-3.4	53	3%	-5
CCN(CC)C(=O)C(=O)c1cc(C)n(-c2ccc(F)cc2)c1C	0	?	3.7	3.5	-14	9%	-17
COc1ccc(C2CC(c3cccc(OC)c3OC)n3nnnc3N2)cc1 (stereo not given)	-9	3.0	-1.5	3.0	8	23%	4
O=C1c2ccccc2C(=O)N1COc1ccc(S(=O)(=O)N2CCOCC2)cc1[N+](=O)[O-]	-5	-0.4	-3.2	-4.0	6	/	2
CC(C)c1ccc(/C=N/N2CCCCC2)cc1	-18	0.3	-0.4	-3.4	-7	3%	10
CC(C)(C)C(=O)CNCC(=O)C(C)(C)C	-6	2.2	1.2	4.3	-14	-7%	-6
Cc1ccc(C(=O)OCn2ncc(Cl)c(Cl)c2=O)cc1	47	-3.2	6.6	0.0	114*	?	62*
Cc1ccc(-c2oc3ncnc(N)c3c2-c2ccc(C)cc2)cc1	1	-3.4	0.7	-1.9	0	-9%	7
CCOC(=O)N1CCc2c(sc3ncn(C)c(=O)c23)C1	-6	2.2	0.9	-0.9	-1	-6%	-3
